Ba CapD inh: Bacillus anthracis CapD inhibitors, primary screen, biochemical, fluorescence intensity | CapD gamma-glutamyltranspeptidase (Bacillus anthracis Ames Ancestor) | purified CapD enzyme, fluorescence intensity read-out; stronger effect = lower value; some hits fall short of the stated cut | z-score (no concentration beside the values) | 140,000 tested, 0.23% active;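 active = z-score under -4 in either of two replicates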;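 also: stock transfer was 100 nL into about 40 µL; score is relative to mean and spread of the plate; one replicate is shown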
AID504770: growth inhibition of E. coli YBA685, primary screen, V. cholerae RctB inhibitors. AID 504770, 2011. E. coli YBA685 rctB-dependent plasmid, OD600 growth, 3 h; stronger effect = lower value. 130,000 tested, 0.27% active. z-score (concentration not given with the values);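 active = z-score under -2 on both plates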;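 also: wells of about 30 µL received 100 nL stock; score is relative to mean and SD of the test wells; the first replicate is given; strong numbers were not always called active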
* marks the source's active call; other numbers are inactive results; . = no result given.

SMILES	Ba CapD inh	AID504770
CN1CCN(C(=O)C2c3ccccc3Oc3ccccc32)CC1	-0.3	1.2
CCC1=NN(C(=O)c2ccc(-c3ccccc3)cc2)C(O)(C(F)(F)F)C1 (stereo not drawn)	0.11	.
O=C(NC1CCCC1)c1cc2nc(-c3ccccc3)cc(-c3ccccc3)n2n1	17	1.7
C=CCn1ccn(-c2ccc(OCC)cc2)c(=O)c1=O	.	0.35
CCOC(=O)c1cc(C#N)c(=O)[nH]c1-c1ccccc1	2.2	-1.2
Cc1ccc(Cn2cnc3c(nnn3Cc3ccc(C)cc3)c2=O)cc1	.	0.15
O=C(Nc1ccc(S(=O)(=O)N2CCOCC2)cc1)c1cnccn1	.	-0.85
COC(=O)c1sccc1NC(=O)CC1C(=O)NCCN1C(=O)c1ccccc1 (stereo not drawn)	0.1	1.6
Cc1nc2c(ccc3ccsc32)s1	0.025	-0.9
CCOc1ccc(NC(=O)CSc2nc3ccccc3n2S(=O)(=O)c2cccc([N+](=O)[O-])c2)cc1	-1.2	.
O=C(NNc1nc(N2CCOCC2)nc(N2CCOCC2)n1)c1ccc(F)cc1	0.51	-0.45
CC12CC[C@H]3[C@@H](CCC4(O)C[C@H](O)CCC34/C=N/NC(=O)c3cc4c(cn3)[nH]c3ccccc34)C1(O)CCC2C1=CC(=O)OC1 (stereo partly drawn)	-0.36	.
Cc1ccc(S(=O)(=O)N2CCN(C(=O)Cn3c(=O)oc4ccccc43)CC2)cc1	.	0.75
NNC(=O)c1ncoc1-c1ccc(Cl)cc1	0.83	-0.75
CCOC(=O)c1c(C)n(-c2ccccc2)c2c1cc(OC(=O)c1ccccc1)c1ccccc12	0.23	.
O=S1(=O)N=C(NNS(=O)(=O)c2ccccc2)c2ccccc21	.	0.2
C=CCN(c1nc(C)c(Br)c(OC)n1)S(=O)(=O)c1ccc(C)cc1	-0.26	.
Cc1nc(NC(=O)CSC2=NCCS2)sc1C(=O)N(C)C	1.1	-0.35
COC(=O)c1ccccc1S(=O)(=O)N1CCC(C(=O)O)CC1	.	0.2
Cc1nc2ccc(Cl)cc2n1CO	-0.21	-1
O=C(COc1cccc(Oc2ccccc2)c1)Nc1ncccn1	.	0
OC(c1ccccc1)(c1ccccc1)C(F)F	.	-0.5
COC(=O)c1cc(C2CC2)[nH]n1	0.28	-0.35
CCC1=C2CCC3C(CCC4(C)C3CCC4(C)O)C2(C)CCC1=O (stereo not drawn)	-0.035	-0.25
CCOC(=O)Cn1cc(C(=O)c2cccs2)c2ccccc21	1.1	0.8
(list continues)
SMILES	Ba CapD inh	AID504770
C=CCNc1nc(C2(C)CC3(CC(COCCC(C)C)OC3=O)C(=O)O2)cs1 (stereo not drawn)	-0.22	.
CCN(CC)c1ccc2cc(C(=O)NC(C)=O)c(=Nc3cccc4ccccc34)oc2c1	-0.19	.
COc1ccc(NC(=O)CNS(=O)(=O)/C=C/c2ccc(C)cc2)cn1	.	-0.4
N#Cc1cc2cccc3c2n(c1=O)CC3	10	.
Cn1nc(-c2ccccc2)c(COC(=O)c2ccc(Cl)c(Cl)c2)c1Cl	-0.085	.
CC1CN(C(=O)C(C)NC(c2ccccc2)c2ccccc2)CC(C)O1 (stereo not drawn)	.	1.3
COc1ccc(C(=O)CSc2nc3sc(C)c(C)c3c(=O)[nH]2)cc1[N+](=O)[O-]	-0.12	.
O=C(NC1CCCCC1)/C(=C\c1cccs1)NC(=O)c1ccccc1	-1.1	-0.5
COc1ccc(C2C(C(=O)NCc3ccccn3)c3ccccc3C(=O)N2C)cc1 (stereo not drawn)	0.065	.
C=CCOc1ccc(CN2CCN(S(=O)(=O)c3ccccc3Cl)CC2)cc1	-0.43	.
COc1ccc(-n2ncc3c(=O)[nH]cnc32)cc1	0.49	-1.7
CC(=O)Nc1ccc(S(=O)(=O)Nc2nc(CN3CCOCC3)nc3sc4c(c23)CCCC4)cc1	.	-0.55
Cc1ccc(C(=O)Nc2nnc(CCS(=O)(=O)c3ccc(Cl)cc3)s2)cc1[N+](=O)[O-]	-1.2	.
COC(=O)c1ccc(COC(=O)c2cccn2C)o1	.	-0.4
Cc1ccc(S(=O)(=O)/C(C#N)=N/O)cc1	-0.85	.
CN(Cc1cccs1)C(=O)c1ccc2c(c1)NC(=O)CS2	.	1.3
C=CCSc1nnc(-c2cc3cc4ccccc4nc3s2)n1CC	29	.
CCCC(=O)c1ccc(N2CCc3ccccc3C2)c(F)c1	0.4	2.1
Cn1c(=O)oc2cc(S(=O)(=O)NCCC(=O)NC3CCCc4ccccc43)ccc21 (stereo not drawn)	-1.3	-1.1
Cc1cc(C)c(-n2c(SCCS(=O)(=O)c3ccc(F)cc3)n[nH]c2=O)c(C)c1	-1.1	-0.5
CCC(C)N1C(=O)S/C(=C/c2ccc(O)c(Cl)c2)C1=O (stereo not drawn)	-1.6	0
COc1cccc(Cn2c(-c3cccnc3Cl)nc3cc(C)c(C)cc32)c1	2	.
NC(=O)c1c(-c2ccccc2)oc2ccc(O)cc12	11	-0.7
CN(C(=O)COC(=O)c1ccc(Br)o1)c1ccccc1	0.32	-0.1
c1cncc(-c2nnc3n2CCCCC3)c1	0.39	-0.65

Complete entries, quoted from the list. Screens in order: Ba CapD inh, AID504770
Cn1c(=O)oc2cc(S(=O)(=O)NCCC(=O)NC3CCCc4ccccc43)ccc21 (stereo not drawn) reads -1.3, -1.1
CCOC(=O)c1c(C)n(-c2ccccc2)c2c1cc(OC(=O)c1ccccc1)c1ccccc12 reads 0.23, .
CN(Cc1cccs1)C(=O)c1ccc2c(c1)NC(=O)CS2 reads ., 1.3
C=CCN(c1nc(C)c(Br)c(OC)n1)S(=O)(=O)c1ccc(C)cc1 reads -0.26, .
c1cncc(-c2nnc3n2CCCCC3)c1 reads 0.39, -0.65

6 compounds drawn at random from those above, as already listed:
SMILES	Ba CapD inh	AID504770
c1cncc(-c2nnc3n2CCCCC3)c1	0.39	-0.65
CCOc1ccc(NC(=O)CSc2nc3ccccc3n2S(=O)(=O)c2cccc([N+](=O)[O-])c2)cc1	-1.2	.
COc1cccc(Cn2c(-c3cccnc3Cl)nc3cc(C)c(C)cc32)c1	2	.
Cc1ccc(Cn2cnc3c(nnn3Cc3ccc(C)cc3)c2=O)cc1	.	0.15
CCC1=C2CCC3C(CCC4(C)C3CCC4(C)O)C2(C)CCC1=O (stereo not drawn)	-0.035	-0.25
CCC(C)N1C(=O)S/C(=C/c2ccc(O)c(Cl)c2)C1=O (stereo not drawn)	-1.6	0

New compounds follow
SMILES	Ba CapD inh	AID504770
CCc1ccc(C(=O)Nc2cc(NC(=O)c3ccco3)ccc2C)cc1	0.62	-1
CCN(Cc1ccccc1)S(=O)(=O)c1ccc(C(=O)Nc2nnc(COC)o2)cc1	0.18	.
COc1ccc(/C=C2\c3cc(C)ccc3-c3nc4ccccc4cc32)cc1	-0.27	.
Clc1ccc(-c2nc3cc(CN4CCCCC4)ccc3o2)cc1	-0.095	-1.4
COc1ccc(NC(=O)CC(C)S(=O)(=O)c2ccc3c(c2)NC(=O)CO3)cc1 (stereo not drawn)	-0.08	-0.25
O=C1CCCc2cc(S(=O)(=O)NCC3CCC(C(=O)Nc4ccccc4)CC3)ccc2N1 (stereo not drawn)	0.15	-0.45
O=C1CCC([N+](=O)[O-])C(C2CCCCC2)N1 (stereo not drawn)	0.17	.
Cc1cccc(N2COc3cc4c(cc3C2)OCO4)c1	-0.58	-0.25
COc1ccc(OC)c(N/C=C(\C#N)c2nc(-c3cc4ccccc4oc3=O)cs2)c1	0.095	-0.05
O=C(COC(=O)c1ccco1)c1ccc(-n2nncc2C23CC4CC(CC(C4)C2)C3)cc1	.	1.4
CCc1nc2cccnc2n1-c1ccc(CC(=O)NCCOC)cc1	1.1	-0.4
COC(=O)c1cc(Cl)cc(Cl)c1	0.38	.
CCc1ccc2oc(C(=O)N(Cc3ccc(N(C)C)cc3)Cc3ccco3)cc(=O)c2c1	-2.7	2.1
O=C(NCCC(=O)c1ccc(F)cc1)NCCN1CCOCC1	-0.045	.
CC1=NN(C(=O)C(=O)N2N=C(C)C3C4C(CC32O)C4(C)C)C2(O)CC3C(C12)C3(C)C (stereo not drawn)	0.11	.
S=c1sc2c(N3CCc4ccccc43)ncnc2n1-c1ccccc1	0.04	.
Brc1ccc(C2N3CCCN23)cc1 (stereo not drawn)	-1.3	-0.2
COCON1C(=O)CN(C(=O)c2ccccc2)C1c1cccc([N+](=O)[O-])c1 (stereo not drawn)	-0.35	.
Cn1c(=O)oc2cc(S(=O)(=O)N3CCCC3)ccc21	-0.69	-0.15
CCOC(=O)c1sc2ncn(CC(=O)N3CCCc4ccccc43)c(=O)c2c1C	0.35	0.65
O=C(NCC1CCCCC1O)OCCc1ccc(Br)cc1 (stereo not drawn)	0.3	.
COC(Cn1c(=S)[nH]c2ccccc2c1=O)OC	0.18	0.7
Nc1oc2cc(O)ccc2c(=O)c1-c1nc2ccccc2s1	42	1.2
O=C(c1ccco1)N1CCN(C2c3cccc4cccc(c34)C2NS(=O)(=O)c2ccccc2)CC1 (stereo not drawn)	.	-0.4
CSCCSc1nnc(Nc2cccc(C)c2C)s1	.	-0.65
(next part)
SMILES	Ba CapD inh	AID504770
Oc1ccccc1CN1CCN(Cc2ccccc2O)C1c1c2ccccc2cc2ccccc12	0.13	.
O=C(NNc1ccccc1Br)C(c1ccccc1)c1ccccc1	0.29	.
c1ccc(Cc2noc(-c3ccccc3)n2)cc1	.	-1
CC1CCN(c2ccc(NC(=O)CCC(=O)O)cc2)CC1	-0.23	0
CSC(=Nc1cc(C(F)(F)F)cc(C(F)(F)F)c1)N1CCOCC1	-1.4	0.95
CC(/C=N/NC(=O)c1ccco1)=C\c1ccco1	.	-0.25
CCCC1CCC(c2ccc(C(N)=O)cc2)CC1 (stereo not drawn)	-1.5	1
CC1CCN(c2nnc(N)s2)CC1	1	-0.65
O=C1Nc2ccccc2/C1=C\c1c[nH]c2ccccc12	-3.9	0.7
Cc1cc(C)nc(/N=C2\NC(=O)CC(C(=O)O)N2c2ccc(Oc3ccccc3)cc2)n1 (stereo not drawn)	2.4	-0.45
O=C(O)c1ccccc1Nc1ccc(SC(F)F)cc1	.	-0.85
CC(=O)Nc1cc([N+](=O)[O-])ccc1C	-0.38	.
COc1ccc(-c2cc(=NC(CC(C)C)C(=O)O)c3cc(C)ccc3o2)cc1 (stereo not drawn)	0.15	-0.45
O=C(N/N=C/c1ccc(F)cc1)c1ccc(OC(F)(F)F)cc1	-0.36	.
CC1=NN(c2ccccc2)C(=O)C1C=C1C(=O)N(C)C(=S)N(C)C1=O (stereo not drawn)	-0.51	0.75
COc1ccc(CNC(=O)CC2Oc3ccccc3NC2=O)cc1 (stereo not drawn)	-0.28	1.5
CCOC(=O)C1=NN(c2ccccc2)C(=C2C(=O)c3ccccc3C2=O)S1	-0.29	-0.6
O=C(CNc1ccccc1F)N/N=C1\CCCCc2ccccc21	.	0
Cc1cc(NC(=O)Cn2c(=O)n(CC3CCC(C(=O)NCCc4ccccc4)CC3)c(=O)c3ccccc32)n[nH]1 (stereo not drawn)	.	-0.15
N/C(CSc1ccccn1)=N\Nc1ncc(C(F)(F)F)cc1Cl	-0.85	.
COc1ccc(NC(=O)c2ccc3c(=O)n(CCc4ccccc4)c(=S)[nH]c3c2)cc1	-0.88	-0.25
O=C1CN(C(=O)c2cc([N+](=O)[O-])c(Nc3ccccc3)c([N+](=O)[O-])c2)c2ccccc2N1	-1.4	.
CC1=C(C(=O)Nc2ccccc2)C(c2ccc(Br)cc2)n2nnnc2N1 (stereo not drawn)	0.17	.
CCOc1ccc2c(c1)sc(=NC(=O)c1ccc(S(=O)(=O)N3CCCCC3C)cc1)n2CC (stereo not drawn)	0.31	-0.3
CCc1ccc(CCC(=O)Nc2cccc(NC(=O)CCc3ccc(CC)o3)c2)o1	-0.12	1.4
(more compounds)
SMILES	Ba CapD inh	AID504770
CC(=O)Nc1ccc(C(=O)CSc2nnnn2C(C)C)cc1	.	0.1
NC(=O)CSc1nnc(NC(=O)c2cccs2)s1	.	-0.55
O=C(c1ccc(OC(F)F)cc1)N1CCN(c2ccccc2)CC1	.	1.9
CCNS(=O)(=O)c1cc(Cl)sc1Cl	-0.11	.
CC1=C(C(=O)OCCOc2ccccc2)C(c2ccc(OCc3ccccc3)cc2)NC(=O)N1 (stereo not drawn)	0.085	.
CC(=O)N1C(c2ccccc2)CC(=O)C(c2ccccc2)C1c1ccccc1 (stereo not drawn)	0.1	-0.4
Cc1nccnc1-c1ccnn1C(=O)Nc1cc(Cl)cc(Cl)c1	-0.21	-0.85
CCc1ccc(NC(=O)COc2ncnc3c2cnn3-c2ccccc2)cc1	.	0.2
O=C(CN1C(=O)C2CC=CCC2C1=O)NC1CCCc2ccccc21 (stereo not drawn)	.	-0.3
CC(=O)C12c3ccccc3C(c3ccccc31)C1C(=O)N(c3ccc(Cl)cc3)C(=O)C12 (stereo not drawn)	-0.16	.
O=C(O)CC1S/C(=N/N=C/c2ccccc2)NC1=O (stereo not drawn)	.	1.1
COc1cnc(-c2ccncc2)nc1-c1cccc(C(F)(F)F)c1	-0.26	.
N#CCC(=O)N1CCn2c1nc1ccccc12	0.56	-0.05
CC(C)(O)C#CC(O)c1ccc(F)cc1 (stereo not drawn)	0.89	-0.45
Cc1ccc(-c2cc(C(F)F)nc(NCc3ccco3)n2)cc1	3.6	-1.3
O=C(O)CCCC(=O)Nc1ccc2c(c1)OCCO2	-0.57	.
CC1(C)CC(=O)CC(=O)S1	-2.9	2.8
CS(=O)(=O)NCCNc1cc(-c2ccccc2)nc2ccccc12	14	0.1
COc1cc2[nH]c(=S)n(NC(=O)CC(C)C)c(=O)c2cc1OC	-0.46	0.3
Cc1nn(CC(=O)NCCc2ccccc2)c2ccccc12	0.44	-0.05
O=C(O)c1cc2ncc(Br)cn2n1	.	-0.65
